# High-throughput results from PubChem BioAssay.
# TsaE inh – qHTS Assay for Inhibitors of YjeE; purified YjeE, fluorescence polarisation of a bound ADP probe; Potency, µM; tRNA threonylcarbamoyladenosine biosynthesis protein TsaE (Escherichia coli (strain …; actives 0.05% (n = 71,000); active = well fitted falling curve; inconclusive = weaker or top-dose-only fall, or a rising curve; inactive = flat or poorly fitted curve;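 also: top concentration of the series not given in the record; excess ADP was the control for the full effect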
#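 Fluorescence polarization of a BODIPY Texas Red–ADP probe (2 uM) bound to purified YjeE (10 uM) was read after 15 min room-temperature incubation with compounds. Loss of polarization marks inhibitors; ADP serves as titrated control.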
# PK Bst – Pyruvate Kinase. AID 361, 2006. partly purified Bacillus stearothermophilus pyruvate kinase, luminescence ATP production; ribose 5-phosphate activator present at AC10. Potency, µM. actives 1.2% (n = 51,000); in the data active means potency below about 11 µM; inconclusive means mostly about 12 µM to 25 µM; inactive means weaker than that;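 the screen sought inhibitors and activators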;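 also: potency is read from the fitted curve at half-maximal effect; scaled between full activation by ribose 5 phosphate and full inhibition by luteolin; about four in five hits inhibit and the cells do not say which; series up to 57 µM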
# Starred values were filed as active, the others as inactive; i = inactive; ? = inconclusive; / = not tested or not shown.
TsaE inh | PK Bst | SMILES
i | / | Cc1oc2c(c(=O)c1C)C(=O)CC(c1ccccc1)C2 (stereo not given)
i | >57 | Cc1c(NC(=O)c2cccc(S(=O)(=O)N3CCOCC3)c2)c(=O)n(-c2ccccc2)n1C
i | / | CC(=O)NCN1CCN(CNC(C)=O)CC1
i | >57 | O=C1[C@@H]2CSCN2C(=O)CN1CCc1cccc(F)c1
i | >57 | CC(C)CNC(=O)c1cc(-c2ccc(Cl)c(Cl)c2)on1
i | >57 | CNc1cc(C)nc(-n2nc(C)cc2C)n1
i | / | CCCCc1ccc(NC(=O)C2CCCO2)cc1 (stereo not given)
i | >57 | Cc1ccnc(N2CCC(C(=O)Nc3ccc4c(c3)CCC4)CC2)n1
i | / | COc1ccccc1NC(=O)C1(C)Cc2ccccc2C(=O)O1 (stereo not given)
i | / | COCCN1Cc2cccc(C(=O)NCc3ccccn3)c2C1=O
i | >57 | Cc1cc(Br)c2c(c1)=C(c1sc(N3CCCCCC3)nc1O)C(=O)N=2
i | >57 | CC(C(=O)NCc1cccs1)n1cccc1 (stereo not given)
i | >57 | Cc1ccccc1NS(=O)(=O)c1cc(S(C)(=O)=O)ccc1Cl
i | / | COC(=O)[C@@]1(Cc2ccc(OC)cc2)[C@H]2c3cc(C(=O)N(C)C)n(Cc4ccc(S(C)(=O)=O)cc4)c3C[C@H]2CN1C(=O)c1ccccc1
i | / | CCN(CC)CCCCn1c(-c2ccccc2)nc2c(NCCOC)nc(C)nc21
i | >57 | CCOc1ccccc1NC(=O)CSc1ncnc2c1oc1ccccc12
i | / | O=C(NCc1ccccc1)C1CCN(S(=O)(=O)c2cccc3cccnc23)CC1
i | / | CSc1nc2ccc(NC(=O)C3CC(=O)N(Cc4ccco4)C3)cc2s1 (stereo not given)
i | >57 | CCCCn1nnnc1SCC(=O)c1ccc(C)c(C)c1
i | >57 | CCOC(=O)c1cccnc1SCc1cc(=O)n2ccccc2n1
i | >57 | C=CCn1c(NC(=O)c2ccco2)c(S(=O)(=O)c2ccccc2)c2nc3ccccc3nc21
i | >57 | NC1CCCCC1N=Cc1c(O)n(CCc2ccc(F)cc2)c(=O)[nH]c1=O (stereo not given)
i | / | Cc1nn(-c2ccccc2)c2nc(-c3ccncc3)cc(C(=O)NCc3ccco3)c12
i | >57 | CCc1ccc(CNC(=O)CN2C(=O)COc3ccccc32)cc1

# Whole records as entered above:
# CCCCn1nnnc1SCC(=O)c1ccc(C)c(C)c1 in the list: TsaE inh = i; PK Bst = >57
# CCOc1ccccc1NC(=O)CSc1ncnc2c1oc1ccccc12 in the list: TsaE inh = i; PK Bst = >57

# Following part:
TsaE inh | PK Bst | SMILES
i | / | Nc1nc(CSc2n[nH]c(-c3ccccc3)n2)nc(Nc2ccccc2)n1
i | / | C[N+](C)(C)[C@@H](C1=CCCC1=O)c1ccccc1
i | / | Cc1cc(CNC(=O)[C@@H]2C[C@H]2[C@@H](NP(=O)(c2ccccc2)c2ccccc2)c2ccccc2)nn1C
i | >57 | O=C(C1CCN(C2CC(=O)N(c3cccc(Cl)c3)C2=O)CC1)N1CCCCCC1 (stereo not given)
i | ? | O=C(Nc1ncc(Cc2ccccc2)s1)c1cccs1
i | >57 | O=C(CSc1ncc(-c2ccccc2)n1-c1ccccc1)NCc1ccco1
i | / | N#CCCn1c(=O)c(-c2ccccc2)nc2cnc(N3CCOCC3)nc21
i | / | CCOc1ccc(NC2c3ccccc3C(=O)N2Cc2ccco2)cc1 (stereo not given)
i | / | CC(C)C[C@@H](CC(=O)N[C@@H](CCC(=O)O)CC(=O)O)NC(=O)[C@@H]1CNCC[C@H]1NC(=O)C[C@@H](NC(=O)C[C@H](CO)NC(=O)[C@@H]1CCCC[C@H]1N)C(C)C
i | >57 | COCc1cc(C2C(C(=O)c3ccco3)=C(O)C(=O)N2CCOCCO)ccc1O (stereo not given)
i | >57 | Cc1cc(C)nc(NC(=O)CSc2ccccn2)n1
i | / | CCn1c(C2CC(=O)N(Cc3ccccc3)C2)nc2ccccc21 (stereo not given)
i | / | O=C1OCc2cc(NC(=O)C3COc4ccccc4O3)ccc21 (stereo not given)
i | >57 | CC(=O)NCc1cccc(CNC(C)=O)n1
i | >57 | O=C(COC(=O)C(O)c1ccccc1)NC12CC3CC(CC(C3)C1)C2 (stereo not given)
i | / | COc1ccc(-n2nnnc2SCC(=O)N2CCOCC2)cc1
i | / | COc1c(-c2ccc(O)c(O)c2)oc2cc(O)cc(O)c2c1=O
i | >57 | CS(=O)(=O)N1CCCC(C(=O)NCCCN2CCN(Cc3ccccc3)CC2)C1 (stereo not given)
i | / | O=C(O)c1ccc(N2CCCCCC2)c(N2C(=O)c3ccccc3C2=O)c1
i | / | Cc1cc(C)c(S(=O)(=O)Nc2ccc(OCC(=O)O)cc2)c(C)c1
i | >57 | CCCN1C(=O)NC2(O)C(=O)c3ccccc3C12O (stereo not given)
i | >57 | CC(C)NC(=O)c1ccccc1NC(=O)CN(c1ccc2c(c1)OCO2)S(C)(=O)=O
i | / | c1ccn2c(SCc3ccc4c(c3)OCCO4)nnc2c1
i | / | COC(=O)[C@H](Cc1ccccc1)NC(=O)[C@@H](N)CC(=O)O
i | / | CCN(CC)S(=O)(=O)c1ccc(S(=O)(=O)N2CCN(CCC#N)CC2)cc1
i | >57 | Cc1ccc(C(=O)CC2(O)C(=O)N(Cc3ccc4c(c3)OCO4)c3ccccc32)cc1 (stereo not given)
i | >57 | Cc1ccc(N(CC(=O)N2CCc3ccccc32)C2=NC(=O)CS2)cc1
i | >57 | Cc1occc1-c1nnc(SCC(=O)c2ccc(F)cc2)n1Cc1ccco1
i | >57 | CCc1ccc(OC)c(S(=O)(=O)Nc2ccccc2C)c1
i | >57 | CCOC(=O)CSc1nnc(-c2ccncc2)o1
i | / | NCCNS(=O)(=O)c1ccc(N)cc1
i | >57 | COCCN(CCOC)C(=O)c1cc2c(=O)n3ccccc3nc2s1
i | >57 | Cc1ccc(Nc2nc(N)nc(CN3CCN(C)CC3)n2)cc1
i | / | O=C(O)CCc1nnc2n(Cc3ccc(F)cc3)c(=O)c3ccccc3n12
i | / | O=C(OCC(F)(F)C(F)F)c1ccccc1C(=O)Oc1ccc(F)cc1F
i | >57 | O=C(c1cccs1)N(Cc1ccco1)Cc1cc2ccccc2[nH]c1=O
i | / | C[C@@](N)(C(=O)O)c1cccc(CC(=O)O)c1
i | >57 | CCC1(C)Cc2c(sc3c2c(=O)n(C)c2nnc(SCC(=O)c4ccccc4)n32)CO1 (stereo not given)
i | >57 | CC1Cc2cc(/C(O)=C3/C(=O)C(=O)N(CCCN(C)C)C3c3ccncc3)ccc2O1 (stereo not given)
i | >57 | CCC12CN(C(=O)c3ccc(OC)cc3)CC(CC)(CN(C(=O)c3ccc(OC)cc3)C1)C2=O
i | i | Cc1c(C(=O)Nc2ccccc2)sc2nc(-c3ccccc3)cn12
i | >57 | CC(=O)c1cccc(NC(=O)N2CCCC2C(=O)NC2CCCCC2)c1 (stereo not given)
i | >57 | CCOc1ccc(-c2nnn(CC(=O)NCc3ccc(OC)cc3)n2)cc1OCC
i | / | CC(=O)Nc1cc2ccccc2oc1=O
i | >57 | CCn1cc(Br)c(-c2nc3ccccc3c(=O)n2N)n1
i | >57 | COc1ccc(-c2cc(C(F)(F)F)nc(N3CCOCC3)n2)cc1OC
i | >57 | CC1(C)CC(=O)c2cc(C(=O)Nn3cnnc3)c(=O)n(-c3ccccc3)c2C1
i | / | O=C(NCCc1ccccc1)c1ccc2c(c1)N(Cc1ccccc1)C(=O)CS2=O (stereo not given)
i | / | CCCc1nc2oc3cc(OC)ccc3c(=O)c2c(=O)n1Cc1ccco1
i | >57 | CCOC(=O)C1CCCN(C(=O)CCC(=O)Nc2ccc3nc(N4CCOCC4)cc(C)c3c2)C1 (stereo not given)
i | / | CN1CCN(C(=O)c2cc3c(s2)-c2ccccc2S(=O)(=O)C3)CC1
i | / | Cc1cccc(CNc2nc(-c3ccc4c(c3)OCO4)nc3ccccc23)c1
i | >57 | O=C(CSc1nnc(CN2CCOCC2)n1-c1ccccc1)N1CCc2ccccc21
i | >57 | CCOC(=O)N1CCN(C(=O)Nc2sc3nc4n(c(=O)c3c2C)CCC(C)CC4)CC1 (stereo not given)
i | / | COc1cccc(C2NC(=O)NC(C)=C2C(=O)Nc2ccccc2C)c1 (stereo not given)
i | >57 | O=C(CSc1nnnn1-c1ccc(Cl)cc1)NC(=O)Nc1ccc2c(c1)OCCO2
i | >57 | COc1cccc(C2=NOC(C(=O)NCc3ccc(F)cc3)C2)c1 (stereo not given)
i | / | CC(C)c1ncc(C(O)c2cccc3ccccc23)n1C (stereo not given)
i | >57 | CC1CN(C)C(C)CC1NCc1ccc2c(c1)OCO2 (stereo not given)
i | >57 | CCCCCCn1c(N2CCN(c3cccc(Cl)c3)CC2)nc2c1c(=O)[nH]c(=O)n2C

# (list continues)
TsaE inh | PK Bst | SMILES
i | / | Cc1nc2cnc(Nc3ccccc3)nc2n(Cc2ccc(F)cc2)c1=O
i | >57 | CN(C)S(=O)(=O)c1ccc(C(=O)OCc2ccc(C#N)cc2)cc1
i | i | CC(=O)OCC(=O)c1ccc2ccn(C(C)=O)c2c1
i | / | Cc1noc(C)c1-c1nc(N2CCOCC2)c2ccccc2n1
i | / | CCN1CCCC1CNC(=O)Cn1ncc2c(=O)oc3ccc(C)cc3c21 (stereo not given)
i | >57 | CC(=O)N1CCc2cc(S(=O)(=O)CCC(=O)N3CCN(c4ccccn4)CC3)ccc21
i | >57 | C=CCC1(O)C(=O)Nc2ccccc21 (stereo not given)
i | >57 | CN(C)c1nc(N)nc(CSc2nnnn2C)n1
i | >57 | COCCCNc1nc(=S)[nH]c2cc(OC)c(OC)cc12
i | >57 | NC(=O)CCS(=O)(=O)CCN1CCCCC1
i | >57 | CCOc1ccc(NC(=O)Cn2nnc(-c3ccccc3F)n2)cc1
i | >57 | O=C(CSc1nc2ccccc2o1)NCC(=O)c1ccccc1
i | >57 | CCOC(=O)C1CCN(C2CC(=O)N(c3ccc(OCC)cc3)C2=O)CC1 (stereo not given)
i | / | N#Cc1ccc(CN2CC[C@@]3(CCCN(C(=O)c4ccncc4)C3)C2)cc1
/ | >26 | CCC(CC)C1C(C#N)=C(N)Oc2n[nH]c(C)c21 (stereo not given)
i | >57 | CCOCCc1nnc(NC(=O)CSc2ccccc2)s1
i | >57 | O=C(O)C1C2C=CC(C2)C1C(=O)N1CCc2ccccc21 (stereo not given)
i | >57 | COc1ccccc1OC(=O)c1ccc(SC)cc1OC
i | >57 | CC1CN(c2ccccc2)C(=O)CS1 (stereo not given)
i | >57 | O=C(CC1(O)C(=O)N(Cc2ccccc2Cl)c2ccccc21)c1ccco1 (stereo not given)
100µM* | / | Cc1cc(Nc2ccc(O)cc2)ccc1N
i | / | O=C1c2ccccc2NC(c2ccccc2)N1c1ccc(O)cc1 (stereo not given)
i | >57 | COc1ccccc1C(=O)NCCn1ccc2ccccc21
i | / | COc1cccc(Cn2c(=O)c(-c3cc(F)cc(F)c3)nc3cnc(N4CCN(C)CC4)nc32)c1
i | >57 | Cc1cccc(OCCOC(=O)C2CCN(S(=O)(=O)c3cccs3)CC2)c1
i | / | COc1cc2c(cc1OC)C1=C(C#N)CC/C(=N\S(=O)(=O)c3ccccc3)N1CC2
i | >57 | O=C(C1CC1)N1CCc2cc(Br)cc(S(=O)(=O)N3CCOCC3)c21
i | / | O=C(c1ccco1)N1CCC[C@@]2(CCN(Cc3ccccc3)C2)C1
i | / | COc1cccc(Nc2ncc3ncc(=O)n(C4CC4)c3n2)c1
i | >57 | CN(C(=O)CCN1C(=O)C(C)(C)Nc2ccccc21)c1ccccc1
i | >57 | COc1ccc(OCC(O)COc2ccc(OC)cc2)cc1
i | / | Cc1nc2cncnc2n(-c2ccccc2)c1=O
i | >57 | COc1ccc(OC)c(N=c2oc3c(OC)cccc3cc2C(=O)NCc2ccco2)c1
i | / | CCCN1CCN(CCCNC(=O)Cn2ncc3c4ccccc4n(C)c3c2=O)CC1
i | / | Fc1cccc(Cl)c1/C=N\N=C1c2ccccc2-c2ccccc21
i | / | COc1cccc(-c2cncnc2NC2CCNCC2)c1

# Five compounds picked at random from the list so far:
TsaE inh | PK Bst | SMILES
i | / | c1ccn2c(SCc3ccc4c(c3)OCCO4)nnc2c1
i | / | Cc1nc2cncnc2n(-c2ccccc2)c1=O
i | >57 | CCc1ccc(CNC(=O)CN2C(=O)COc3ccccc32)cc1
i | / | CC(C)C[C@@H](CC(=O)N[C@@H](CCC(=O)O)CC(=O)O)NC(=O)[C@@H]1CNCC[C@H]1NC(=O)C[C@@H](NC(=O)C[C@H](CO)NC(=O)[C@@H]1CCCC[C@H]1N)C(C)C
i | / | CCCCc1ccc(NC(=O)C2CCCO2)cc1 (stereo not given)

# Sorted by SMILES length (rising): part of the list above.
TsaE inh | PK Bst | SMILES
i | >57 | COc1ccc(OCC(O)COc2ccc(OC)cc2)cc1
i | / | O=C(c1ccco1)N1CCC[C@@]2(CCN(Cc3ccccc3)C2)C1
i | >57 | COc1ccc(OC)c(N=c2oc3c(OC)cccc3cc2C(=O)NCc2ccco2)c1

# Next part:
TsaE inh | PK Bst | SMILES
i | / | COC(=O)C1=C(C)NC(=O)CC1c1ccccc1F (stereo not given)
i | >57 | COC(=O)c1cccc(NC2CC(=O)N(c3ccc(OC)c(OC)c3)C2=O)c1 (stereo not given)
i | / | CC(C)(O)C1=NOC(c2ccccc2)C1 (stereo not given)
i | >57 | O=C(Nc1ccc(Cc2ccncc2)cc1)C1CC1

# Some of the compounds tested; rates above refer to the full screens.
